ugtP null kill: growth inhibition of ugtP-null S. aureus, primary screen, RN4220 ugtP deletion, OD600 | 16 h; some inactives read as strong as hits | growth inhibition, % (concentration not given with the values) | actives 0.54% (n = 330,000) | AID 1259309, 2017;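 active means z-score under -3 and OD600 up to 0.15 on both plates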;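 further: plate controls were untreated wells for no effect and antibiotic for full effect; wells of about 80 µL received 100 nL stock; the first replicate is given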
BJeLR lethal: MLPCN primary cell-based screen for lethality selective to Ras in HRASV12 cells. BJeLR (HRASV12) viability, CellTiter-Glo ATP luminescence, 48 h; reference of the scale not given here. AID 1554, 2009. actives 0.17% (n = 300,000). inhibition, % (test concentration not listed);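 active means replicate mean above 50%; inconclusive means above 50% but judged a plate artefact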;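 further: 50 nL library stock added to about 25 µL; numbers are from one replicate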
Autofluor counter: flagged as autofluorescent in microsphere protease counterscreen; fluorescence intensity (concentration not given with the values); actives 3.1% (n = 360,000); compound autofluorescence counterscreen, microsphere flow cytometry; active compounds read high;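 active means at least 3 SD above the mean of all compounds, about 16000 in these data; inconclusive means too few beads counted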;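 further: 100 nL of 1 mM stock went into each well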
RN4220 kill: growth inhibition of S. aureus RN4220, primary screen, OD600; inhibition, % (test concentration not listed); actives 0.33% (n = 330,000); AID 1259311, 2017; 16 h;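 active means z-score of -3 or lower and OD600 up to 0.18 on both plates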;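 further: plate controls were untreated cells for no effect and reference antibiotic for full effect; stock transfer was 100 nL into about 80 µL; one replicate is shown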
Mtb hypoxia inh: PubChem AID 1159583; M. tuberculosis hypoxia-regulated fluorescent reporter, fluorescence; fluorescence inhibition, % (no concentration beside the values); actives 0.1% (n = 300,000);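 active means 35 to 45% if threefold the growth effect, above 45% if 1.5-fold the growth effect; inactive means the rest, general growth blockers included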;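 further: wells of about 50 µL received 100 nL stock; 0% = vehicle wells and 100% = reference inhibitor wells; whole bacteria with a GFP reporter of the hypoxia response; strong numbers were not always called active; many hits fall short of the cut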
PrP UTR inh: inhibition of PrP 5' UTR reporter expression; actives 0.35% (n = 340,000); cell-based PrP 5' UTR mRNA reporter, plate reader; inhibition, % (concentration not given with the values);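 active means every replicate at 50% or more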;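 further: 0 = median of the neutral control wells; tested in H4 reporter cells; numbers are from one replicate; inactives centre near -14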
Mtb hypoxia inh growth: second read-out of Mtb hypoxia inh, no call of its own (marks repeat the call); growth inhibition, %; measured here: M. tuberculosis growth (absorbance);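 0% = vehicle and 100% = reference antibiotic; read after six days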
The depositor's hits bear a star. Random draw from the library, and some 3.9% of all compounds hit somewhere here.

What do the screens show for `O=C(Cn1nc(-c2ccccc2)nc1-c1ccccc1)N1CCOCC1`?
ugtP null kill: -3; BJeLR lethal: -3; Autofluor counter: 9017; RN4220 kill: 1.8; Mtb hypoxia inh: 0; PrP UTR inh: 8; Mtb hypoxia inh growth: 12

How did CN(C)S(=O)(=O)N(CCN1CCOCC1)Cc1ccccc1F do in these assays?
ugtP null kill: 0; BJeLR lethal: -9; Autofluor counter: 3502; RN4220 kill: 3.4; PrP UTR inh: -20

Results for Nc1cccc2c1C(=O)N(CCOc1ccc(F)cc1)C2=O ?
ugtP null kill: 6; BJeLR lethal: -2; Autofluor counter: 4171; RN4220 kill: 6.2; Mtb hypoxia inh: 4; PrP UTR inh: -172; Mtb hypoxia inh growth: 10

Results for O=C(NNS(=O)(=O)c1ccc(CCCl)cc1)C(O)(c1ccccc1)c1ccccc1 ?
ugtP null kill: 7; BJeLR lethal: 14; Autofluor counter: 9157; RN4220 kill: 11; Mtb hypoxia inh: -1; PrP UTR inh: -17; Mtb hypoxia inh growth: 1

How did COc1ccccc1OCc1ccc(C(=O)N(C)c2ccccc2)o1 do in these assays?
ugtP null kill: 4; BJeLR lethal: 4; Autofluor counter: 3734; RN4220 kill: 3.0; Mtb hypoxia inh: 6; PrP UTR inh: -14; Mtb hypoxia inh growth: 1

Results for Cc1cc(NC(=O)CCN2C(=O)C3C4CCC(C4)C3C2=O)cc(C)c1Br (stereo not drawn) ?
ugtP null kill: 4; BJeLR lethal: -8; Autofluor counter: 2612; RN4220 kill: 7.0; PrP UTR inh: -23

Results for Cc1occc1-c1nnc(SCC(=O)NCc2ccc3c(c2)OCO3)n1CC(C)C ?
ugtP null kill: 2; BJeLR lethal: 1; Autofluor counter: 3045; RN4220 kill: -1.0; PrP UTR inh: -27

Results for CCOc1ccc2[nH]c(=O)c(C(c3nnnn3Cc3ccco3)N3CCN(C)CC3)cc2c1 (stereo not drawn) ?
ugtP null kill: -3; BJeLR lethal: -6; Autofluor counter: 4185; RN4220 kill: -2.5; Mtb hypoxia inh: 6; PrP UTR inh: -22; Mtb hypoxia inh growth: 0

How did CCOC(=O)C1=C(N)OC2=C(C(=O)CCC2)C12C(=O)Nc1ccccc12 (stereo not drawn) do in these assays?
ugtP null kill: 5; BJeLR lethal: 5; Autofluor counter: 5981; RN4220 kill: 4.5; Mtb hypoxia inh: 5; PrP UTR inh: 0; Mtb hypoxia inh growth: 4

What do the screens show for `COCc1ccc(C(=O)N2CCCC(C(=O)c3ccc(Cl)cc3C)C2)o1` (stereo not drawn)?
ugtP null kill: -5; BJeLR lethal: -5; Autofluor counter: 4231; RN4220 kill: -4.3; Mtb hypoxia inh: -3; PrP UTR inh: 0; Mtb hypoxia inh growth: -8

How did COc1ccc(Oc2coc3cc(OC(=O)c4cncc(Br)c4)ccc3c2=O)cc1 do in these assays?
ugtP null kill: 4; Autofluor counter: 2631; RN4220 kill: 1.4; PrP UTR inh: -9

Results for Cc1ccc(CN=C(N)Nc2nc(C)cc(C)n2)cc1 ?
ugtP null kill: -4; BJeLR lethal: 23; Autofluor counter: 4454; RN4220 kill: 48; Mtb hypoxia inh: 13; PrP UTR inh: -40; Mtb hypoxia inh growth: 17

How did OC(COc1ccccc1)CN(Cc1ccccc1)CC(O)COc1ccccc1 (stereo not drawn) do in these assays?
ugtP null kill: 4; Autofluor counter: 3425; RN4220 kill: 2.7; Mtb hypoxia inh: 13; PrP UTR inh: -32; Mtb hypoxia inh growth: -2

What do the screens show for `CCC(C)c1c(NS(=O)(=O)c2ccc(C)cc2)o[nH]c1=O` (stereo not drawn)?
ugtP null kill: -1; Autofluor counter: 3583; RN4220 kill: 3.7; Mtb hypoxia inh: 11; PrP UTR inh: -15; Mtb hypoxia inh growth: 6

What do the screens show for `CCO[C@@H]1OC(C(=O)NCc2ccccc2)=C[C@H](C2CCCCC2)[C@H]1CCCO`?
BJeLR lethal: -6; Autofluor counter: 2985; PrP UTR inh: 2

Results for O=C(NCCc1nnc2ccc(NCc3cccnc3)nn12)c1ccccc1F ?
ugtP null kill: 4; BJeLR lethal: -4; RN4220 kill: 3.1; Mtb hypoxia inh: 4; PrP UTR inh: -6; Mtb hypoxia inh growth: 2

How did Cc1cccc(CCNC(=O)c2cccc(NC3=NC4CS(=O)(=O)CC4S3)c2)c1 (stereo not drawn) do in these assays?
ugtP null kill: -2; BJeLR lethal: -4; Autofluor counter: 6438; RN4220 kill: 5.8; Mtb hypoxia inh: -4; PrP UTR inh: -5; Mtb hypoxia inh growth: -2

What do the screens show for `CC(=O)/C(C#N)=C1\NC(=O)C(Cc2cc(Cl)ccc2Cl)S1` (stereo not drawn)?
ugtP null kill: 14; BJeLR lethal: 28; Autofluor counter: 3467; RN4220 kill: 39; Mtb hypoxia inh: 9; PrP UTR inh: -17; Mtb hypoxia inh growth: -5

Results for O=C(NC1CCc2ccccc21)C1CCN(S(=O)(=O)c2ccc(Cl)cc2)CC1 (stereo not drawn) ?
ugtP null kill: -1; BJeLR lethal: 2; Autofluor counter: 2378; RN4220 kill: -3.2; Mtb hypoxia inh: 6; PrP UTR inh: -20; Mtb hypoxia inh growth: 6

What do the screens show for `Fc1ccc(N2CCN(c3ncnc4c3nnn4Cc3ccccc3Cl)CC2)cc1`?
ugtP null kill: 4; BJeLR lethal: 14; Autofluor counter: 2884; RN4220 kill: 12; Mtb hypoxia inh: -3; PrP UTR inh: -21; Mtb hypoxia inh growth: 1

Part of the list above in order of molar mass, rising:
What do the screens show for `CCC(C)c1c(NS(=O)(=O)c2ccc(C)cc2)o[nH]c1=O` (stereo not drawn)?
ugtP null kill: -1; Autofluor counter: 3583; RN4220 kill: 3.7; Mtb hypoxia inh: 11; PrP UTR inh: -15; Mtb hypoxia inh growth: 6

How did CCOC(=O)C1=C(N)OC2=C(C(=O)CCC2)C12C(=O)Nc1ccccc12 (stereo not drawn) do in these assays?
ugtP null kill: 5; BJeLR lethal: 5; Autofluor counter: 5981; RN4220 kill: 4.5; Mtb hypoxia inh: 5; PrP UTR inh: 0; Mtb hypoxia inh growth: 4

Results for O=C(NCCc1nnc2ccc(NCc3cccnc3)nn12)c1ccccc1F ?
ugtP null kill: 4; BJeLR lethal: -4; RN4220 kill: 3.1; Mtb hypoxia inh: 4; PrP UTR inh: -6; Mtb hypoxia inh growth: 2

Structural class: those above with an aryl methoxy group (2)
How did COc1ccccc1OCc1ccc(C(=O)N(C)c2ccccc2)o1 do in these assays?
ugtP null kill: 4; BJeLR lethal: 4; Autofluor counter: 3734; RN4220 kill: 3.0; Mtb hypoxia inh: 6; PrP UTR inh: -14; Mtb hypoxia inh growth: 1

How did COc1ccc(Oc2coc3cc(OC(=O)c4cncc(Br)c4)ccc3c2=O)cc1 do in these assays?
ugtP null kill: 4; Autofluor counter: 2631; RN4220 kill: 1.4; PrP UTR inh: -9

(more compounds)
How did CNc1ccccc1 do in these assays?
ugtP null kill: 7; Autofluor counter: 5575; RN4220 kill: 7.6; Mtb hypoxia inh: 9; PrP UTR inh: -14; Mtb hypoxia inh growth: 7

How did Cc1ccc(C)c(NC(=O)C2CCCN2C(=O)OC(C)(C)C)c1 (stereo not drawn) do in these assays?
ugtP null kill: -4; BJeLR lethal: -5; Autofluor counter: 4210; RN4220 kill: -1.0; PrP UTR inh: -15

Results for CCN1CCCC1CNC(=O)c1cc(NC(C)=O)c(N(C)C)cc1OC (stereo not drawn) ?
ugtP null kill: -3; BJeLR lethal: -10; Autofluor counter: 4691; RN4220 kill: 5.6; Mtb hypoxia inh: 17; PrP UTR inh: -21; Mtb hypoxia inh growth: 12

How did Cc1ccc(-n2c(C)nc3cc(Cl)ccc3c2=O)nc1 do in these assays?
ugtP null kill: 4; BJeLR lethal: -4; Autofluor counter: 3120; RN4220 kill: 3.9; Mtb hypoxia inh: 9; PrP UTR inh: -6; Mtb hypoxia inh growth: 10

How did COc1cc(NC(=O)c2cc(Br)cc(C)c2OC)ccc1NC(=O)C(C)C do in these assays?
ugtP null kill: -13; BJeLR lethal: -1; Autofluor counter: 4503; RN4220 kill: 9.8; Mtb hypoxia inh: 0; PrP UTR inh: 0; Mtb hypoxia inh growth: 3

What do the screens show for `Cc1ccnc2nc(C(=O)NCc3ccccc3)nn12`?
ugtP null kill: 8; BJeLR lethal: 5; Autofluor counter: 3982; RN4220 kill: 15; Mtb hypoxia inh: 16; PrP UTR inh: -16; Mtb hypoxia inh growth: 5

What do the screens show for `CCCOc1ccccc1N/C(N)=N/c1nc(C)cc(C)n1`?
ugtP null kill: -2; BJeLR lethal: -2; Autofluor counter: 2291; RN4220 kill: -0.4; Mtb hypoxia inh: -3; PrP UTR inh: -21; Mtb hypoxia inh growth: 2

What do the screens show for `CCOC(=O)C1CCCN(C(=O)C2CCN(S(=O)(=O)c3ccc4ccccc4c3)CC2)C1` (stereo not drawn)?
ugtP null kill: 6; BJeLR lethal: -10; Autofluor counter: 6128; RN4220 kill: -0.3; Mtb hypoxia inh: 8; PrP UTR inh: -8; Mtb hypoxia inh growth: 2

Results for Cc1cc(C)nc(NNS(=O)(=O)c2ccc(F)c(Cl)c2)n1 ?
BJeLR lethal: -3; Autofluor counter: 5998; PrP UTR inh: -19

Results for COc1ccc(OC)c(CC(=O)N2CCc3cc(OC)c(OC)cc3C2)c1 ?
ugtP null kill: 9; BJeLR lethal: 7; Autofluor counter: 3793; RN4220 kill: 4.1; Mtb hypoxia inh: -10; PrP UTR inh: -12; Mtb hypoxia inh growth: -13

What do the screens show for `COc1ccccc1/C=C1\SC(=S)N(CC(=O)Nc2nnc(C)s2)C1=O`?
ugtP null kill: 6; BJeLR lethal: -6; RN4220 kill: 13; Mtb hypoxia inh: -2; Mtb hypoxia inh growth: -13

What do the screens show for `CC(C)C(NC(=O)C1CCCCC1)C(=O)NCc1ccccn1` (stereo not drawn)?
ugtP null kill: 0; BJeLR lethal: 7; Autofluor counter: 2354; RN4220 kill: -2.9; PrP UTR inh: -23

What do the screens show for `Cc1ccc(-n2nc3c(=O)n(CCCC(=O)N4CCC(C(N)=O)CC4)nc(C)c3c2C)cc1`?
ugtP null kill: 5; BJeLR lethal: -1; Autofluor counter: 5933; RN4220 kill: 3.7; Mtb hypoxia inh: 4; PrP UTR inh: -1; Mtb hypoxia inh growth: 4

What do the screens show for `Cc1ccc(S(=O)(=O)N2CCN(CC(=O)Nc3ccccc3Cl)CC2)cc1`?
ugtP null kill: -3; Autofluor counter: 8525; RN4220 kill: 1.4; Mtb hypoxia inh: 2; PrP UTR inh: -23; Mtb hypoxia inh growth: 10

How did Cc1ccc(S(=O)(=O)/N=C(/NC(=S)Nc2c(C)n(C)n(-c3ccccc3)c2=O)c2ccccc2)cc1 do in these assays?
ugtP null kill: 3; BJeLR lethal: 1; Autofluor counter: 3607; RN4220 kill: 5.7; Mtb hypoxia inh: -10; PrP UTR inh: -14; Mtb hypoxia inh growth: 5

What do the screens show for `Cc1ccccc1-c1cc(C(=O)n2cccn2)c2cc(Cl)ccc2n1`?
ugtP null kill: 7; BJeLR lethal: -2; Autofluor counter: 11419; RN4220 kill: 1.7; Mtb hypoxia inh: 6; PrP UTR inh: -22; Mtb hypoxia inh growth: 15

How did CC(=O)c1cccc(N(C(=O)Cn2nnc3ccccc32)C(C(=O)NCc2ccccc2)c2ccccn2)c1 (stereo not drawn) do in these assays?
ugtP null kill: 2; BJeLR lethal: 2; Autofluor counter: 2462; RN4220 kill: 2.8; Mtb hypoxia inh: 9; PrP UTR inh: -8; Mtb hypoxia inh growth: 3

Results for COC(=O)CCC(=O)OC1(C)C(=O)C=C2C=C(C3CC3)N(CCCOC(C)C)C=C2C1=O (stereo not drawn) ?
ugtP null kill: -11; BJeLR lethal: 0; Autofluor counter: 2906; RN4220 kill: 2.8; Mtb hypoxia inh: 13; PrP UTR inh: 3; Mtb hypoxia inh growth: 12

How did O=C(COC(=O)c1c2c(nc3ccccc13)/C(=C\c1ccco1)CC2)NC1CCCC1 do in these assays?
ugtP null kill: -5; Autofluor counter: 3617; RN4220 kill: 11; Mtb hypoxia inh: -2; PrP UTR inh: -39; Mtb hypoxia inh growth: 15

Results for COc1ccc2[nH]c(=O)c(C(c3nnnn3CC3CCCO3)N3CCc4ccccc4C3)cc2c1 (stereo not drawn) ?
ugtP null kill: 4; BJeLR lethal: 2; Autofluor counter: inconclusive; RN4220 kill: 5.6; Mtb hypoxia inh: -5; PrP UTR inh: -15; Mtb hypoxia inh growth: 6

Screening data deposited in PubChem by several laboratories.
